Screening results as filed in PubChem.
FGF22 binding: shifts melting point of recombinant human FGF22 | recombinant FGF22 thermal shift, SYPRO orange fluorescence; percent of sucrose octasulfate shift, DMSO zero | calls only at 9.99 µM | Q9HCT0 | AID 651658 | 340,000 compounds, 1.5% hits;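 active means melting point raised past a set limit in the mean and every replicate; three in four hits are not shown here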
Target sequence (Q9HCT0 whole entry, looked up): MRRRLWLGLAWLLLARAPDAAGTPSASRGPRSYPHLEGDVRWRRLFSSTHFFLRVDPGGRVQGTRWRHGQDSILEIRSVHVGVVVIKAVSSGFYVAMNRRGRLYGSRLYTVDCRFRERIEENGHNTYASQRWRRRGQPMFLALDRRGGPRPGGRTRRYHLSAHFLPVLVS
Calls only; i = inactive. Some of the compounds tested. The share of hits here may be higher or lower than overall.

SMILES	FGF22 binding
COc1ccc2c3c([nH]c2c1)[C@@H](CO)N(C(=O)CC1CC1)CC31CN(C(=O)CC2CC2)C1	i
O=C(NC1CCCC1)N1CCCCN2[C@H](CO)[C@H](c3ccc(-c4cccnc4)cc3)[C@H]2C1	i
CCN(C[C@@H]1N[C@@H](CO)[C@H]1c1ccc(-c2ccc(F)cc2)cc1)C(=O)CN(C)C	i
CN(C)CC(=O)N[C@@H]1CC[C@H](CCNS(=O)(=O)c2ccccc2)O[C@H]1CO	i
COc1ccc(CN(C)C[C@H]2Oc3ccc(NS(=O)(=O)c4c(C)noc4C)cc3C(=O)N([C@@H](C)CO)C[C@@H]2C)cc1	i
C[C@H]1CN([C@@H](C)CO)C(=O)c2cc(NS(=O)(=O)c3ccccc3)ccc2O[C@H]1CN(C)Cc1ccc(C(F)(F)F)cc1	i
C[C@@H]1CN([C@@H](C)CO)C(=O)c2cccc(NS(=O)(=O)c3cccs3)c2O[C@@H]1CN(C)Cc1ccncc1	i
O=C(C[C@H]1CC[C@@H](NC(=O)c2ccccn2)[C@H](CO)O1)NCc1cccc(F)c1	i
COc1ccc(CN(C)C[C@H]2Oc3ccc(NC(=O)c4ccncc4)cc3C(=O)N([C@@H](C)CO)C[C@@H]2C)cc1	i
C[C@H](CO)N1C[C@H](C)[C@@H](CN(C)CC2CC2)Oc2ccc(NC(=O)Cc3ccccc3)cc2CC1=O	i
Cc1noc(C)c1NC(=O)N(C)C[C@@H]1OCc2ccccc2-c2ccccc2C(=O)N([C@H](C)CO)C[C@@H]1C	i
Cc1noc(C)c1S(=O)(=O)N(C)C[C@@H]1OCc2ccccc2-c2c(n(C)c3ccccc23)C(=O)N([C@@H](C)CO)C[C@@H]1C	i
CN(C)CC(=O)N1CCCCN2[C@@H](CO)[C@@H](c3ccc(-c4cccnc4)cc3)[C@@H]2C1	i
O=C(Nc1ccccc1)Nc1ccc2c(c1)[C@@H]1C[C@@H](CC(=O)N3CCOCC3)O[C@H](CO)[C@@H]1O2	i
CCS(=O)(=O)Nc1ccc2c(c1)C(=O)N(C)C[C@@H](OC)[C@H](C)CN[C@@H](C)CO2	i
CC(C)NC(=O)Nc1ccc2c(c1)C(=O)N(C)[C@@H]1CC[C@H](CC(=O)NC3CCCCC3)O[C@H]1CO2	i
CN1CCN(C(=O)C[C@H]2CC[C@@H](NS(=O)(=O)c3cccc(F)c3)[C@@H](CO)O2)CC1	i
C[C@@H]1CN([C@H](C)CO)C(=O)c2cccc(NC(=O)C3CC3)c2O[C@H]1CN(C)Cc1ccc(C(F)(F)F)cc1	i
CO[C@H]1CN(C)C(=O)c2ccc(NC(=O)NC(C)C)cc2OC[C@@H](C)N(C(=O)CC2CC2)C[C@H]1C	i
C[C@H](CO)N1C[C@H](C)[C@H](CN(C)C)Oc2ncc(C3=CCCC3)cc2C1=O	i
C[C@@H]1CCCCO[C@@H](CN(C)C(=O)c2ccncc2)[C@H](C)CN([C@H](C)CO)C(=O)c2cc(NS(=O)(=O)c3cn(C)cn3)ccc2O1	i
Cc1ccc(S(=O)(=O)N(C)C[C@H]2OCCCC[C@@H](C)Oc3ccc(NC(=O)Nc4ccc5c(c4)OCO5)cc3C(=O)N([C@H](C)CO)C[C@@H]2C)cc1	i
C[C@H](CO)N1C[C@H](C)[C@H](CN(C)C(=O)NC2CCCCC2)Oc2c(NC(=O)c3ccc(-c4nccs4)cc3)cccc2C1=O	i
Cc1ccc(S(=O)(=O)N(C)C[C@H]2OCCCC[C@H](C)Oc3ccc(NC(=O)c4ccccc4)cc3C(=O)N([C@H](C)CO)C[C@@H]2C)cc1	i

No new results follow: entries from further up.
SMILES	FGF22 binding
COc1ccc2c3c([nH]c2c1)[C@@H](CO)N(C(=O)CC1CC1)CC31CN(C(=O)CC2CC2)C1	i
O=C(NC1CCCC1)N1CCCCN2[C@H](CO)[C@H](c3ccc(-c4cccnc4)cc3)[C@H]2C1	i
CCN(C[C@@H]1N[C@@H](CO)[C@H]1c1ccc(-c2ccc(F)cc2)cc1)C(=O)CN(C)C	i
CN(C)CC(=O)N[C@@H]1CC[C@H](CCNS(=O)(=O)c2ccccc2)O[C@H]1CO	i
COc1ccc(CN(C)C[C@H]2Oc3ccc(NS(=O)(=O)c4c(C)noc4C)cc3C(=O)N([C@@H](C)CO)C[C@@H]2C)cc1	i
C[C@H]1CN([C@@H](C)CO)C(=O)c2cc(NS(=O)(=O)c3ccccc3)ccc2O[C@H]1CN(C)Cc1ccc(C(F)(F)F)cc1	i
C[C@@H]1CN([C@@H](C)CO)C(=O)c2cccc(NS(=O)(=O)c3cccs3)c2O[C@@H]1CN(C)Cc1ccncc1	i
O=C(C[C@H]1CC[C@@H](NC(=O)c2ccccn2)[C@H](CO)O1)NCc1cccc(F)c1	i
COc1ccc(CN(C)C[C@H]2Oc3ccc(NC(=O)c4ccncc4)cc3C(=O)N([C@@H](C)CO)C[C@@H]2C)cc1	i
C[C@H](CO)N1C[C@H](C)[C@@H](CN(C)CC2CC2)Oc2ccc(NC(=O)Cc3ccccc3)cc2CC1=O	i
Cc1noc(C)c1NC(=O)N(C)C[C@@H]1OCc2ccccc2-c2ccccc2C(=O)N([C@H](C)CO)C[C@@H]1C	i
Cc1noc(C)c1S(=O)(=O)N(C)C[C@@H]1OCc2ccccc2-c2c(n(C)c3ccccc23)C(=O)N([C@@H](C)CO)C[C@@H]1C	i

Continuation.
SMILES	FGF22 binding
COc1ccccc1NC(=O)N(C)C[C@@H]1OCc2ccccc2-c2ccccc2C(=O)N([C@H](C)CO)C[C@@H]1C	i
C[C@@H]1CN([C@H](C)CO)S(=O)(=O)c2ccc(Br)cc2O[C@H]1CN(C)Cc1ccncc1	i
C[C@H]1CN([C@@H](C)CO)C(=O)c2cccc(NC(=O)C3CCOCC3)c2O[C@@H]1CN(C)C(=O)NC1CCCCC1	i
COCC(=O)Nc1ccc2c(c1)OC[C@H](C)N(C(=O)c1cccnc1)C[C@H](C)[C@@H](OC)CN(C)C2=O	i
COc1ccc(S(=O)(=O)N2CCCCN3[C@@H](CO)[C@@H](c4ccc(C5=CCCCC5)cc4)[C@@H]3C2)cc1	i
C[C@H](CO)N1C[C@H](C)[C@@H](CN(C)S(=O)(=O)c2ccc(Cl)cc2)Oc2ccc(NC(=O)Nc3ccc(C(F)(F)F)cc3)cc2CC1=O	i
C[C@H](CO)N1C[C@H](C)[C@H](CN(C)C(=O)C2CCCCC2)Oc2cc(C3=CCCCC3)ccc2S1(=O)=O	i
Cc1ccccc1-c1ccccc1[C@H]1[C@@H](CO)N(C(=O)c2cccc(F)c2)[C@H]1C#N	i
C[C@@H]1CN([C@H](C)CO)C(=O)c2cc(NC(=O)Nc3ccc(F)cc3)ccc2O[C@@H]1CN(C)S(=O)(=O)c1ccc(Cl)cc1	i
O=C(CN1CCOCC1)NCC[C@@H]1CC[C@H](NC(=O)Cc2ccccn2)[C@H](CO)O1	i
COc1ccc(S(=O)(=O)Nc2ccc3c(c2)C(=O)N([C@H](C)CO)C[C@@H](C)[C@H](CN(C)C(=O)Nc2ccc(F)cc2)OCCCC[C@@H](C)O3)cc1	i
C[C@H](CO)N1C[C@H](C)[C@@H](CN(C)C(=O)c2ccccc2)OCCCC[C@H](C)Oc2ccc(NC(=O)Nc3ccccc3)cc2C1=O	i
O=C(Nc1ccc(F)cc1)N1CCCCN2[C@H](CO)[C@@H](c3ccc(-c4ccccc4F)cc3)[C@@H]2C1	i
CCOC(=O)N(C)C[C@H]1OCc2cnnn2CCCC(=O)N([C@H](C)CO)C[C@@H]1C	i
C[C@H]1CN([C@@H](C)CO)C(=O)c2ccccc2-c2ccccc2CO[C@H]1CN(C)S(C)(=O)=O	i
COc1ccc(CN(C)C[C@H]2Oc3ccc(NC(=O)Nc4ccc5c(c4)OCO5)cc3C(=O)N([C@H](C)CO)C[C@@H]2C)cc1	i
CN1C(=O)c2cc(NC(=O)c3ccccc3)ccc2OC[C@@H]2O[C@H](CC(=O)O)CC[C@H]21	i
C[C@H](CO)N1C[C@H](C)[C@H](CN(C)C)Oc2ccc(NC(=O)Nc3ccccc3)cc2C1=O	i
C[C@@H]1CCCCO[C@@H](CN(C)C(=O)Nc2ccc(F)cc2)[C@H](C)CN([C@H](C)CO)C(=O)c2cc(NC(=O)Nc3cccc4ccccc34)ccc2O1	i
C[C@@H]1CN([C@@H](C)CO)S(=O)(=O)c2ccc(C#Cc3ccncc3)cc2O[C@@H]1CN(C)S(=O)(=O)c1ccccc1	i
COCCNC(=O)C[C@@H]1C[C@H]2c3cc(NC(=O)Nc4ccccc4)ccc3O[C@H]2[C@H](CO)O1	i
CN(C)CCCNC(=O)[C@@H]1[C@@H](CO)[C@@H]2Cn3c(ccc(-c4ccncc4)c3=O)[C@H]1N2C(=O)CC1CC1	i
Cc1ccccc1-c1ccc2c(c1)O[C@H](CN(C)C)[C@@H](C)CN([C@H](C)CO)S2(=O)=O	i
CN1C(=O)c2cc(NC(=O)C3CCCC3)ccc2OC[C@H]2O[C@@H](CC(=O)NCC(F)(F)F)CC[C@H]21	i
C[C@H]1COc2cccc(NCCO)c2S(=O)(=O)N1	i
CC(C)NC(=O)N(C)C[C@@H]1Oc2ccc(NC(=O)CCN3CCOCC3)cc2C(=O)N([C@@H](C)CO)C[C@@H]1C	i
COc1ccc(S(=O)(=O)N(C)C[C@H]2OCCCC[C@@H](C)Oc3ccc(NC(=O)Nc4ccc5c(c4)OCO5)cc3C(=O)N([C@H](C)CO)C[C@@H]2C)cc1	i
CO[C@@H](CN(C)S(=O)(=O)c1ccc(Cl)cc1)[C@H](C)CN(C(=O)Nc1ccccc1F)[C@@H](C)CO	i
COc1ccc(S(=O)(=O)Nc2ccc3c(c2)C(=O)N([C@@H](C)CO)C[C@@H](C)[C@H](CN(C)C(=O)c2ccccc2)OCCCC[C@@H](C)O3)cc1	i
Cc1ccc(NC(=O)Nc2ccc3c(c2)C(=O)N(C)[C@@H]2CC[C@@H](CC(=O)O)O[C@@H]2CO3)cc1	i
COCc1cn(CC[C@@H]2CC[C@@H](NC(=O)Nc3ccc(C(F)(F)F)cc3)[C@@H](CO)O2)nn1	i
COCC(=O)N(C)C[C@H]1Oc2ncc(-c3ccccc3C)cc2C(=O)N([C@H](C)CO)C[C@H]1C	i
Cc1ccc(S(=O)(=O)Nc2ccc3c(c2)C(=O)N([C@H](C)CO)C[C@H](C)[C@@H](CN(C)Cc2ccc(C(=O)Nc4ccccc4N)cc2)O3)cc1	i
COc1cc(C=NN=c2sc3ccccc3n2C)ccc1OCCO	i
C[C@H](O)C#Cc1cnc2c(c1)C(=O)N([C@H](C)CO)C[C@H](C)[C@H](CN(C)Cc1cccc(F)c1)O2	i
C[C@@H]1CCCCO[C@H](CN(C)Cc2ccc(C(=O)O)cc2)[C@@H](C)CN([C@H](C)CO)C(=O)c2cc(NS(=O)(=O)c3ccc(F)cc3)ccc2O1	i
C=CCN=C1NC(c2ccccc2)C(C(=O)OC)=C(C)N1Cc1ccc(C(F)(F)F)cc1 (stereo not drawn)	i
C[C@H](CO)N1C[C@H](C)[C@H](CN(C)CC2CC2)Oc2cc(C#CCN(C)C)ccc2S1(=O)=O	i
O=C1O[C@@H](c2ccccc2)[C@@H](c2ccccc2)N2[C@@H](c3ccc(O)cc3)[C@]3(C(=O)Nc4ccc(C#CCCO)cc43)[C@@H](C(=O)NC[C@H](O)c3ccccc3)[C@H]12	i
COC(=O)C[C@H]1CC[C@H]2[C@@H](COC[C@@H](O)CN2S(=O)(=O)c2ccccc2C)O1	i
c1ccc(-c2ccc(C3[C@@H]4CN(Cc5cccnc5)C[C@H]3N4)cc2)cc1 (stereo partly drawn)	i
COc1ccc(S(=O)(=O)Nc2cccc3c2O[C@@H](CN(C)C(=O)Nc2ccccc2)[C@@H](C)CN([C@H](C)CO)C3=O)cc1	i
COc1ccccc1NC(=O)N[C@@H]1CC[C@H](CC(=O)N[C@H](C)c2ccccc2)O[C@@H]1CO	i
CCC(=O)N1CC2(CN(Cc3ccc(F)cc3)C2)c2c(n(C)c3cc(OC)ccc23)[C@H]1CO	i
CN(C)C(=O)[C@@H]1[C@@H](CO)[C@@H]2Cn3c(ccc(C4=CCCC4)c3=O)[C@H]1N2C(=O)Nc1ccccc1	i
O=C(CN1CCOCC1)N1CC[C@@H]2[C@H](CO)Nc3ccc(Br)cc3[C@@H]21	i
CC(C)C#Cc1ccc([C@H]2[C@H](CO)N3CCCCN(C(=O)Nc4ccccc4)C[C@@H]23)cc1	i
CCNC(=O)C[C@@H]1CC[C@@H]2[C@@H](COc3ccc(NC(=O)Nc4ccc(F)cc4)cc3C(=O)N2C)O1	i
CCCNC(=O)N(C)C[C@H]1Oc2cc(C3=CCCCC3)ccc2S(=O)(=O)N([C@H](C)CO)C[C@H]1C	i
C[C@H]1CN([C@@H](C)CO)C(=O)c2cccc(NS(=O)(=O)c3ccccc3)c2O[C@@H]1CN(C)C(=O)Nc1cccc2ccccc12	i
CC(C)C#Cc1ccc2c(c1)O[C@@H](CN(C)C(=O)c1cnccn1)[C@H](C)CN([C@H](C)CO)S2(=O)=O	i
Cc1ccccc1-c1cnc2c(c1)C(=O)N([C@H](C)CO)C[C@H](C)[C@H](CN(C)C(=O)c1ccccc1)O2	i
Cc1cc(C(=O)Nc2cccc3c2O[C@H](CN(C)Cc2ccc(C(F)(F)F)cc2)[C@H](C)CN([C@H](C)CO)C3=O)n(C)n1	i
CCOC(=O)C1CSCCS(=O)(=O)N1Cc1ccc(Cl)cc1 (stereo not drawn)	i
C[C@H]1CN([C@@H](C)CO)C(=O)c2cc(-c3ccncc3)cnc2O[C@H]1CN(C)C(=O)C1CCOCC1	i
CC(C)NC(=O)N(C)C[C@H]1Oc2ncc(-c3cncnc3)cc2C(=O)N([C@@H](C)CO)C[C@@H]1C	i
Cc1cccc(S(=O)(=O)N2CC[C@@H]3[C@H]2c2cc(-c4ccc(C#N)cc4)ccc2N(C)[C@H]3CO)c1	i
Cc1ccc(S(=O)(=O)Nc2ccc3c(c2)CC(=O)N([C@@H](C)CO)C[C@H](C)[C@@H](CN(C)C(=O)Nc2ccc4c(c2)OCO4)O3)cc1	i
COc1ccccc1-c1ccc2n(c1=O)C[C@H]1[C@H](CO)[C@@H](C(=O)NCc3ccccc3Cl)N[C@@H]21	i
C[C@@H]1CN([C@@H](C)CO)C(=O)c2ccccc2-c2ccccc2CO[C@@H]1CN(C)S(=O)(=O)c1ccccc1	i
